Screening data: PubChem BioAssay, several laboratories
RecA splice inh = Mtb RecA intein splicing inhibitors, primary screen, biochemical, fluorescence, HTS; Protein RecA (Mycobacterium tuberculosis (strain ATCC 25618 / H37Rv)), P9WHJ3; AID 2221, 2009; actives 0.75% (n = 290,000); cell-free RecA intein splicing; inhibition, %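 (about 9 µM by stock and volumes)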; in the data active means inhibition above about 30%; inconclusive means no clear call, values can overlap the other calls;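 further: 0% = vehicle wells and 100% = reference inhibitor control wells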
Target sequence (P9WHJ3 whole entry, looked up, canonical isoform): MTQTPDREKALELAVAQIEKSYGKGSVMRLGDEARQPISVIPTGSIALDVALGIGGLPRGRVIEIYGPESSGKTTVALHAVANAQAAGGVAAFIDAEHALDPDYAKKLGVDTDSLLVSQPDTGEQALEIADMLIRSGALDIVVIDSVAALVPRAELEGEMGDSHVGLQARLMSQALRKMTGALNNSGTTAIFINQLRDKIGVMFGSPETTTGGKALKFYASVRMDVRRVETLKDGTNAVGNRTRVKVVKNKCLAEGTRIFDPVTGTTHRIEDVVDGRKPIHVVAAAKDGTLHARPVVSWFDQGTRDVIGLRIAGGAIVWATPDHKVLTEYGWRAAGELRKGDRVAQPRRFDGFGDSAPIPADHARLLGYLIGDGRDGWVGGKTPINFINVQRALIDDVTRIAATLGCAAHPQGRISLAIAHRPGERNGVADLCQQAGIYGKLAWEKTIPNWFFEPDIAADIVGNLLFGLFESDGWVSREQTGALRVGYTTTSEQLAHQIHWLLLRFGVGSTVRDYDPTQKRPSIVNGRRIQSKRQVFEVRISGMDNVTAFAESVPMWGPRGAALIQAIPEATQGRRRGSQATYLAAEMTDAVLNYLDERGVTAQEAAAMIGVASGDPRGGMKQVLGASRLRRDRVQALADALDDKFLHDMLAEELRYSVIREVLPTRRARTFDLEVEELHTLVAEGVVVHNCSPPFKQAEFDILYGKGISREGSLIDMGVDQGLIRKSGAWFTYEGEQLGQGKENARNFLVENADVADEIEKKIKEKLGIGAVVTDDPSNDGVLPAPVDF
YopH inh = YopH tyrosine phosphatase inhibitors, primary screen, biochemical, fluorescence Ex485/Em525 | YopH tyrosine phosphatase [Yersinia enterocolitica] | inhibition, %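 (about 10 µM by stock and volumes)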 | actives 0.16% (n = 140,000) | AID 898, 2007;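 active means inhibition of 50% or more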;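 further: controls were vehicle for no effect and minimum signal wells for full effect; inactives centre near -20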
Arbovirus inh = antivirals against arbovirus infection, primary screen, cell-based, full library, 10K replicate subset; inhibition, % at 10 µM; actives 0.37% (n = 200,000); arbovirus infection cell-based antiviral screen; AID 1251, 2008;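 active means inhibition from about 30%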;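 further: bluetongue infection of BSR cells; cell survival read as ATP light after 72 h; 0% = infected wells without compound and 100% = uninfected wells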
Mtb betalactam = beta-lactam sensitization of Mtb H37Rv, H37Rv; M. tuberculosis H37Rv growth with meropenem, percent inhibition; hits of this screen are not shown here; inhibition, % at 25 µM; actives 0.27% (n = 330,000);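 active means about 74% or more and at least 40 points above the plate without the antibiotic, then above 30% in a dose series; inconclusive means first-round hits that could not be retested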;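 further: growth measured after seven days incubation then overnight dye step; 0% = bacteria only wells and 100% = bacteria with antibiotic; twin plates without the antibiotic show which effects depend on it; some results filed as inactive read as strong as hits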
Mtb growth = M. tuberculosis H37Rv growth inhibitors, H37Rv strain (AID 1626). M. tuberculosis H37Rv growth inhibition; higher % means a stronger effect. inhibition, % at 10 µM; hits with a dose series show IC50 in µM. actives 0.95% (n = 220,000);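 active means confirmed in a dose series; inconclusive means inhibition above 80% but not taken into the dose series; inactive means below 80% or under 30% at every dose of the series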;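 further: bacteria incubated seven days before Alamar blue readout; 0% = bacteria only wells and 100% = bacteria with antibiotic wells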
Arbovirus inh repeat = recorded beside Arbovirus inh, whose call it bears; inhibition, %; measured here: 10K subset replicate screen; many hits read low in the repeat;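 first of two repeat runs on a subset; 0% = infected and 100% = uninfected wells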
An asterisk follows results filed as active; ? = inconclusive; . = not tested or not shown. This is a subset. The share of hits here may be higher or lower than overall.

SMILES | RecA splice inh | YopH inh | Arbovirus inh | Mtb betalactam | Mtb growth | others
O=C(COc1ccc(Br)cc1)NCCNC(=O)c1cccnc1 | 3.6 | . | . | -6 | .
COc1ccc(C2C(C#N)=C(N)Oc3c2c(C)nn3-c2ccccc2)cc1Cn1nc(C)c([N+](=O)[O-])c1C (stereo not drawn) | 54* | -7 | -5 | 0 | -2%
O=C(c1ccccc1)c1ccc(OCC(O)CNC2CCCc3ccccc32)cc1 (stereo not drawn) | 0.8 | -3 | -12 | 85 | 20%
CCCCN1CN=C(Nc2nc3ccccc3o2)NC1 | 0.1 | 2 | 8 | 7 | -4%
COc1ccccc1N1CCN(C(=O)c2ccc(NC(C)=O)cc2)CC1 | -0.7 | -21 | -3 | 10 | -8%
CCC(=O)NC(NC(=O)CC)C(Cl)Cl | -0.4 | -34 | 1 | -7 | -7%
COc1ccccc1C(=O)NCCC(=O)NC1CCCCC1C (stereo not drawn) | -5.3 | . | . | 0 | .
CCOC(=O)N[C@H](Cc1c[nH]c2ccccc12)C(=O)NC1CC1 | -0.2 | . | . | -3 | -1%
CCOC(=O)Cn1cc(/C=C/[N+](=O)[O-])c2ccccc21 | 2.8 | . | -2 | 44 | 3%
CC(=O)c1cc2c(cc1NC(=O)CN1CCN(C(=O)c3ccco3)CC1)OCO2 | . | 17 | 1 | . | .
COc1cccc(CNc2ccc(F)c(Cl)c2)c1O | 11 | -19 | -40 | 3 | 3%
COc1ccc(-c2nc(NC(=O)c3nc4nccc(C)n4n3)sc2C)cc1 | -5.5 | . | 4 | 57 | -7%
Cn1c(O)c(C=Nc2cccc(C(F)(F)F)c2)c(=O)n(C)c1=O | -0.2 | . | . | 2 | .
Cc1ccc(NC(=S)N/N=C2/CCCc3c(C)cc(C)cc32)cc1 | -1.9 | -16 | 0 | 6 | -20%
CC(=O)c1ccccc1NC(=O)CC1(CC(=O)O)CCCCC1 | -1.8 | . | 8 | -6 | 8%
Cc1ccc2nc(C)cc(C(=O)N3CCCC(CO)(Cc4ccccc4C)C3)c2c1 (stereo not drawn) | 6.6 | . | 5 | 5 | 3%
O=C(CCC(=O)OCC(=O)c1ccc(Cl)cc1Cl)Nc1cccc2cccnc12 | 0.6 | -12 | 0 | 1 | -2%
Cc1c(C)c2ccc(OC(C)C(=O)NCc3ccccn3)cc2oc1=O (stereo not drawn) | -2.6 | . | . | -3 | .
COc1ccccc1N1CCN(Cc2ccccc2Cl)CC1 | -1.4 | -15 | 6 | 8 | -4%
COc1ccc(C(=S)N2CCOCC2)cc1OC(=O)c1cc(OC)c(OC)c(OC)c1 | 3.2 | . | . | 3 | .
CCc1cccc(C)c1NS(=O)(=O)c1cccs1 | 5.4 | . | . | 4 | .
Cc1ccc(OCCn2c(SCCO)nc3c(N)ncnc32)cc1 | -2.1 | . | . | -2 | .
CCOC(=O)c1c(NC(=O)CSc2nnc(-c3ccccc3)o2)sc(C(C)=O)c1C | 2.6 | -10 | -7 | 4 | -4%
CCCC(=O)C1=C(O)C(C(=O)OC)C(C)(C)CC1=Nc1ccc(Br)cc1 (stereo not drawn) | 9.9 | . | . | 3 | 9%
COC(=O)c1c(NC(=O)CC2Nc3ccccc3NC2=O)sc(C)c1C (stereo not drawn) | -4.8 | -27 | 0 | -1 | 2%
Carrying on.
SMILES | RecA splice inh | YopH inh | Arbovirus inh | Mtb betalactam | Mtb growth | others
CCOC(=O)/C(C(=Nc1ccccc1)Nc1ccccc1)=C(\C)O | 2.2 | . | . | 5 | .
CCOc1cc(CNc2ccccc2)cc(Br)c1OCC(=O)NC(C)(C)C | 24 | -45 | -31 | 3 | 3%
O=C(N1CCNCC1)N1CCOCC1 | 0.9 | -36 | 1 | -8 | .
COc1cc2c(cc1OC)CN(Cc1ccc(OC)c(C)c1OC)CC2 | 0.9 | -15 | 6 | -5 | -14%
Cc1ccc(C(=O)Cn2nnc(-c3ccccc3-n3cnnn3)n2)cc1 | -0.6 | -21 | -1 | 10 | 3%
O=C1NCCN/C1=C\C(=O)c1ccccc1 | -1.8 | -8 | 4 | 8 | 1%
CN(C)c1ccc(/C=N/NC(=O)CN(c2ccccc2Cl)S(C)(=O)=O)cc1Br | . | -6 | 2 | 0 | 3%
Cc1nc2nc(-c3ccc(Cl)cc3)[nH]n2c(=O)c1C | . | -32 | 4 | . | 8%
Cc1ccc(NC(=O)CSc2nnc(NC(=O)c3ccc(S(=O)(=O)N4CCOCC4)cc3)s2)cc1 | 18 | -22 | 2 | 7 | 2%
Cc1ccc(S(=O)(=O)CCC(=O)OCc2ccccc2F)cc1 | 0.1 | . | 1 | 3 | 0%
Cc1ccc(C2CC(c3cccs3)=NN2C(=O)CSC2=NN3CCCC(=O)N=C3S2)cc1 (stereo not drawn) | 21 | -47 | -13 | 72 | 4%
CCC(C)n1c(=S)[nH]c2ccccc2c1=O (stereo not drawn) | 0.5 | . | -5 | 1 | 10%
Cc1ccc(NC(=O)CSc2nccn2C)cc1F | -0.5 | . | . | -7 | .
O=S(=O)(NC1CC1)c1ccc(S(=O)(=O)N2CCN3CCCC3C2)cc1 (stereo not drawn) | -1.1 | -35 | -2 | 14 | -5%
CCOC(=O)c1c(C)n(C)c2cc(Br)c(C)cc12 | -1.6 | -20 | 0 | 14 | 5%
COc1cccc(-c2cc(C(=O)N3CCN(c4ccccc4OC)CC3)no2)c1 | -3.1 | . | . | 12 | .
CCCc1cc(=O)n2[nH]c(-c3cc(OC)c(OC)c(OC)c3)nc2n1 | 5.6 | -13 | 5 | 38 | -2%
CCOC(=O)n1c(=O)n(Cc2c(Cl)cccc2Cl)c2ccccc21 | 0.0 | 1 | 11 | -1 | 10%
Cc1cc(S(=O)(=O)N2CCOCC2)ccc1OCC(=O)NCc1ccco1 | 0.2 | . | . | 1 | .
c1ccc(CCCCNCC2COc3ccccc3O2)cc1 (stereo not drawn) | -0.3 | . | 2 | 1 | 11%
Cc1cc2nc(C3CCN(C(=S)NCC(C)C)CC3)[nH]c2cc1C | 0.9 | -20 | 0 | -11 | 3%
O=C(O)CC(C(=O)NC1CCCCC1)C1CCCO1 (stereo not drawn) | -2.1 | 11 | 2 | -1 | -10% | Arbovirus inh repeat=4
COCCSc1ccccc1C(=O)Nc1cc(C)ccn1 | -0.4 | -14 | 0 | 0 | 18%
CN1CCc2nc(SCc3ccccc3Br)c(C#N)cc2C1 | -14 | . | -13 | 78 | 7%
COc1ccc(Nc2ccnc(Nc3ccc(OC)cc3)n2)cc1 | 6.2 | -18 | -39 | 20 | 17%
More entries:
SMILES | RecA splice inh | YopH inh | Arbovirus inh | Mtb betalactam | Mtb growth | others
COc1ccc(C(=O)Nc2cc3c(cc2OC)CCCC3)cc1Br | -0.7 | -24 | 4 | 3 | .
CCCCn1c(C(C)NC(=O)COC)nc2ccccc21 (stereo not drawn) | 2.3 | 2 | 5 | 0 | -7% | Arbovirus inh repeat=5
COc1cc2[nH]c(=O)n(CCCC(=O)NCCc3ccccc3)c(=O)c2cc1OC | . | -47 | 4 | 0 | . | Arbovirus inh repeat=0
CC(=O)Nc1ccc(S(=O)(=O)NNC(=O)c2ccc([N+](=O)[O-])cc2)cc1 | -3.2 | . | . | 4 | .
O=S(=O)(NCCOc1ccccc1Cl)c1ccc2oc3ccccc3c2c1 | 8.2 | -21 | . | -7 | .
CN1C(=O)C(O)(CC(=O)c2cccnc2)c2ccccc21 (stereo not drawn) | . | 19 | -8 | 2 | -4% | Arbovirus inh repeat=-7
COC(=O)c1c(NC(=O)COC(=O)Cn2cnc3ccccc32)sc(C)c1C | 2.7 | -27 | -8 | -2 | 6%
O=C(N/N=C/C=C/c1cccc([N+](=O)[O-])c1)C(O)c1ccccc1 (stereo not drawn) | -1.3 | . | 0 | 3 | 0%
CCn1cc(C(=O)OCC(=O)Nc2c(C)cccc2C)c(=O)c2ccc(C)nc21 | 1.3 | . | 3 | -11 | 1%
Cc1ccc(S(=O)(=O)N2CCCC(C(=O)NCC3CCCO3)C2)cc1 (stereo not drawn) | -3.1 | . | . | -3 | .
COc1ccc(-c2[nH]ncc2CN2CCN(Cc3cccs3)CC2)cc1F | 2.3 | . | 11 | -9 | -5%
O=C(c1ccc(CS(=O)Cc2cccc(Cl)c2)o1)N1CCN(C2CCCCC2)CC1 (stereo not drawn) | 1.2 | . | . | 5 | .
COc1ccc(N=C2NC(=O)S/C2=C\c2ccc(N(C)C)cc2)cc1 | -3.6 | 23 | -12 | 57 | -5%
Cc1cccc(-c2nc3ccccc3c(=O)n2NC(=O)c2cccs2)c1 | -4.7 | -23 | -8 | 1 | 7%
Cc1ccc(CN2CCN(/N=C/c3ccc(C(F)(F)F)cc3)CC2)cc1 | -0.4 | -23 | 5 | 7 | 3%
O=P(Nc1ccccc1)(Nc1ccccc1)Oc1ccc(Cl)cc1 | 25 | -2 | -13 | 3 | .
CCCC(C(=O)NC1CCCCC1)N(Cc1ccco1)C(=O)CNS(=O)(=O)c1ccccc1 (stereo not drawn) | -1.2 | -8 | -4 | 0 | -3%
CC(=O)Oc1cc2c(cc1Cl)C(c1cccs1)CC1(CC(C)(C)NC(=S)N1)O2 (stereo not drawn) | . | . | 3 | -1 | 3%
CC(=O)Nc1ccc(S(=O)(=O)NCCC(=O)OCC(=O)c2ccc(Br)cc2)cc1 | 2.2 | . | . | -7 | .
COCCn1c(SCc2ccc(Cl)cc2)nc2c1c(=O)[nH]c(=O)n2C | -0.5 | . | . | -14 | .
Cc1cc(Nc2cccc(O)c2)c2ccccc2n1 | 0.6 | . | -12 | -8 | -7%
COc1ccc(S(=O)(=O)N(CCc2ccccc2)CC(=O)O)cc1Cl | -8.6 | -35 | 5 | -6 | -6%
COC(=O)c1ccc(NCN2C(=O)C3C4CCC(C4)C3C2=O)cc1 (stereo not drawn) | -2.8 | . | -12 | 56 | ?
CO[C@@H]1O[C@@H]2COC(c3ccccc3)O[C@@H]2[C@@H](OC)[C@@H]1O (stereo partly drawn) | 0.9 | -24 | 0 | -13 | -6%
CC(=O)Nc1ccc2c(c1)nc(CCN1CCN(C)CC1)n2C | 6.2 | -47 | -4 | -17 | 1%

The closing 6 records of the part before come first, to join the parts.
SMILES | RecA splice inh | YopH inh | Arbovirus inh | Mtb betalactam | Mtb growth | others
COCCn1c(SCc2ccc(Cl)cc2)nc2c1c(=O)[nH]c(=O)n2C | -0.5 | . | . | -14 | .
Cc1cc(Nc2cccc(O)c2)c2ccccc2n1 | 0.6 | . | -12 | -8 | -7%
COc1ccc(S(=O)(=O)N(CCc2ccccc2)CC(=O)O)cc1Cl | -8.6 | -35 | 5 | -6 | -6%
COC(=O)c1ccc(NCN2C(=O)C3C4CCC(C4)C3C2=O)cc1 (stereo not drawn) | -2.8 | . | -12 | 56 | ?
CO[C@@H]1O[C@@H]2COC(c3ccccc3)O[C@@H]2[C@@H](OC)[C@@H]1O (stereo partly drawn) | 0.9 | -24 | 0 | -13 | -6%
CC(=O)Nc1ccc2c(c1)nc(CCN1CCN(C)CC1)n2C | 6.2 | -47 | -4 | -17 | 1%
COc1ccc(/C=C/C(=O)N(C)C2CCS(=O)(=O)C2)cc1OC (stereo not drawn) | 1.6 | -29 | 5 | 3 | -2%
CC(C)(C)n1nc2c(c1NC(=O)c1ccccc1)CS(=O)(=O)C2 | -1.1 | . | 7 | -15 | -4%
O=C(c1ccc(F)cc1)N1CCN(c2cnn(-c3ccccc3)c(=O)c2Cl)CC1 | 0.0 | . | 2 | 0 | 2%
O=C1CCC(C(=O)Nc2cccc(C(F)(F)F)c2)N1 (stereo not drawn) | -1.0 | -34 | . | -2 | -6%
CC(NCC(O)COc1ccc2ccccc2c1)c1ccccc1 (stereo not drawn) | -1.5 | . | . | -2 | .
Cc1cccc(NC(=O)C(Cc2ccccc2)n2cccc2)c1 (stereo not drawn) | 5.9 | . | . | -2 | -8%
CCOc1ccccc1N(CC(=O)Nc1ccccc1F)S(=O)(=O)c1ccccc1 | 7.3 | . | . | -17 | .
COc1ccccc1C(=O)COC(=O)c1nc2nc(C)cc(C)n2n1 | -5.8 | . | . | -9 | .
CCOC(=O)C(=O)N/N=C/c1ccco1 | -3.5 | . | . | -6 | 1%
CC(C)(C)OC(=O)NCc1n[nH]c(=S)n1C1CC1 | 3.8 | . | . | -5 | 9%
Cc1ccc2cc(CN(C(=O)c3ccco3)c3ccccc3C)c(=O)[nH]c2c1 | -1.9 | -47 | 3 | -2 | -10%
